Compound activity as filed in PubChem BioAssay.
AF4-AF9 inh – inhibitors of human MLL-AF4/AF9 interaction. P42568. AlphaScreen, biotin-AF4 peptide binding to FLAG-AF9. inhibition, % at 10 µM. actives 0.47% (n = 350,000). AID 651704;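 active = every replicate reaching a set inhibition limit, whatever the replicate mean, cut at about 25% in these data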;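 note: 0% = plate neutral control median and 100% = total signal loss; the record names both 10 and 1 µM as test concentration; the first replicate is given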
Target sequence (P42568 whole entry, looked up): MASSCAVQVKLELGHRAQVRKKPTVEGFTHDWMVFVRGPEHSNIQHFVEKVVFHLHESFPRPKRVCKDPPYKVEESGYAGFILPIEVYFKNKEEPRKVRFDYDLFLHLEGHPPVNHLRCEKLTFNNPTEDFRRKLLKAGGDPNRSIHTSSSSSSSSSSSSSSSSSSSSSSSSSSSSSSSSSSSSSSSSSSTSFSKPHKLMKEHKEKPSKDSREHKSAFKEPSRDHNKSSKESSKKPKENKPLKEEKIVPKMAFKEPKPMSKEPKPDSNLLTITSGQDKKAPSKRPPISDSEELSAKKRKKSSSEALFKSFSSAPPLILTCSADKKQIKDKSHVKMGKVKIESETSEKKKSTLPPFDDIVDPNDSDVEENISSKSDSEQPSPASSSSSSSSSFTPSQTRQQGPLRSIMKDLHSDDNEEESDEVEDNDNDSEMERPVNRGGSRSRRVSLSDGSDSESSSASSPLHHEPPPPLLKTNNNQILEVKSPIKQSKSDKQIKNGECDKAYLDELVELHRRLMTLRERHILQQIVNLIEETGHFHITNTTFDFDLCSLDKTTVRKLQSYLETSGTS
Active calls of the source: *; & = joins results of further samples. Not all compounds are listed; the hit share may differ from the screen's.

AF4-AF9 inh	SMILES
0.4	C[C@@H]1CN([C@H](C)CO)C(=O)c2cc(NC(=O)NC3CCCCC3)ccc2O[C@@H]1CN(C)S(=O)(=O)c1ccccc1
1.7	C[C@@H]1CN([C@H](C)CO)S(=O)(=O)c2ccc(C#C[C@@H](C)O)cc2O[C@H]1CN(C)Cc1ccncc1
3.5	C[C@@H]1CN([C@@H](C)CO)S(=O)(=O)c2ccc(-c3cccc(C#N)c3)cc2O[C@H]1CN(C)C(=O)c1ccncc1
-0.7	CC(C)NC(=O)Nc1ccc2c(c1)C(=O)N([C@H](C)CO)C[C@H](C)[C@H](CN(C)S(=O)(=O)c1ccccc1)O2
-2.2	O=C(C[C@H]1CC[C@@H](NC(=O)CN2CCOCC2)[C@@H](CO)O1)NC1CCCCC1
-0.4	O=C(O)/C=C\C(=O)Nc1ccccc1C(=O)N1CCC(O)(c2ccc(Cl)cc2)CC1
57*	Oc1ccc(Cc2ccccc2)c2cccnc12
-3.7	COCC(=O)N1C[C@@H](C)[C@@H](OC)CN(C)C(=O)c2ccc(NC(=O)c3cnccn3)cc2OC[C@@H]1C
-0.6	CCc1nc2ccc(C(=O)NCCOc3ccc(OC)cc3)cn2c1N(C)Cc1ccc(OC)cc1
-1.0	Cc1ccc(C(=O)OCC(=O)Nc2cccc(S(=O)(=O)N3CCCCC3)c2)s1

Taken from the entries so far for reference:
AF4-AF9 inh	SMILES
0.4	C[C@@H]1CN([C@H](C)CO)C(=O)c2cc(NC(=O)NC3CCCCC3)ccc2O[C@@H]1CN(C)S(=O)(=O)c1ccccc1
1.7	C[C@@H]1CN([C@H](C)CO)S(=O)(=O)c2ccc(C#C[C@@H](C)O)cc2O[C@H]1CN(C)Cc1ccncc1

The list goes on.
AF4-AF9 inh	SMILES
-1.5	Cc1ccc(S(=O)(=O)N(C)C[C@@H]2Oc3ccc(NS(=O)(=O)c4ccc(F)cc4)cc3CC(=O)N([C@@H](C)CO)C[C@@H]2C)cc1
0.0	C[C@H]1CN([C@@H](C)CO)C(=O)c2cc(C3=CCCC3)cnc2O[C@H]1CN(C)C(=O)CN(C)C
-2.1	O=C(Nc1ccc(F)cc1)N[C@H]1CC[C@H](CC(=O)N2CCOCC2)O[C@H]1CO
-1.3	COCCNC(=O)C1CCCN(C(=O)c2csc3ccccc23)CC1 (centres undefined)
-1.6	O=C(C[C@H]1C=C[C@H](NC(=O)c2ccccc2)[C@H](CO)O1)NCc1ccc(Oc2ccccc2)cc1
-1.5	Cc1cccc(-c2ccc([C@@H]3[C@@H](CO)N4CCCCN(C(=O)NC(C)C)C[C@@H]34)cc2)c1
-0.4	Cc1noc(C)c1NC(=O)Nc1ccc2c(c1)CC(=O)N([C@@H](C)CO)C[C@@H](C)[C@H](CN(C)Cc1ccc(C(=O)O)cc1)O2
-1.8	CC(C)NC(=O)N(C)C[C@H]1Oc2cc(C#CC(C)(C)O)ccc2S(=O)(=O)N([C@H](C)CO)C[C@@H]1C
9.3	O=C(C1CCCCC1)N1[C@H](CO)[C@@H](c2ccccc2)C12CN(Cc1cccc(Cl)c1)C2
-0.6	O=C(C1CCOCC1)N1CC2(C1)[C@H](c1ccccc1)[C@@H](CO)N2CCC(F)(F)F

Going on with the list:
AF4-AF9 inh	SMILES
2.0	O=C(NCc1ccccc1)C1c2ccccc2OCC(=O)N1CC(F)(F)F (centres undefined)
-3.7	O=C(C1CC1)N1CC2(C1)[C@H](c1ccccc1)[C@H](CO)N2C(=O)c1cccnc1
4.3	C[C@@H]1CN([C@H](C)CO)C(=O)c2cccc(NC(=O)Nc3ccc4c(c3)OCO4)c2O[C@@H]1CN(C)Cc1ccc(C(=O)Nc2ccccc2N)cc1
-0.8	Cc1ccc(S(=O)(=O)N(C)C[C@H]2OCCCC[C@@H](C)Oc3ccc(NS(=O)(=O)c4ccc(Cl)cc4)cc3C(=O)N([C@@H](C)CO)C[C@H]2C)cc1
1.1	COc1ccc(S(=O)(=O)Nc2ccc3c(c2)C(=O)N([C@H](C)CO)C[C@@H](C)[C@H](CN(C)C(=O)Nc2ccccc2)O3)cc1
-0.9	C[C@@H]1CN([C@H](C)CO)S(=O)(=O)c2ccc(Br)cc2O[C@@H]1CN(C)C(=O)C1CC1
0.4	C[C@@H]1CNC(=O)c2c(C(=O)N3CCN(c4ccccc4)CC3)ncn21
-8.0	COc1ccc(S(=O)(=O)Nc2ccc3c(c2)C(=O)N([C@H](C)CO)C[C@@H](C)[C@@H](CN(C)Cc2ccc(C(=O)O)cc2)OCCCC[C@@H](C)O3)cc1
-1.3	C[C@@H]1CCCCO[C@@H](CN(C)C)[C@H](C)CN([C@@H](C)CO)C(=O)c2cc(NC(=O)c3ccncc3)ccc2O1
2.5	O=CNc1cc(-c2ccsc2)cn2c(-c3ccccc3)cnc12

Next records
AF4-AF9 inh	SMILES
2.7	C[C@H]1CN([C@@H](C)CO)C(=O)c2cc(NC(=O)Nc3cccc4ccccc34)ccc2O[C@H]1CN(C)Cc1ccccc1
2.7	COC1OC(c2ccccc2)=C(c2ccc(C(N)=O)cc2)c2ccc(F)cc21 (centres undefined)
1.9	C[C@H](CO)N1C[C@H](C)[C@@H](CN(C)C(=O)c2ccc(F)cc2)Oc2cc(C3=CCCC3)ccc2S1(=O)=O
-3.1	COc1ccc(S(=O)(=O)N[C@H]2C=C[C@H](CC(=O)N3CCc4ccccc4C3)O[C@@H]2CO)cc1
4.8	COc1cc(C(=O)N2CCCCC2c2cc(C(=O)Nc3ccccc3)no2)cc(OC)c1C (centres undefined)
-7.3	COCCNC(=O)C[C@@H]1C[C@@H]2c3cc(NC(=O)C4CCOCC4)ccc3O[C@@H]2[C@H](CO)O1
0.9&10	O=C(Nc1cccc(F)c1)N1C[C@@H]2N[C@H](C1)C2c1ccc(-c2ccc(F)cc2)cc1 (some centres undefined)
-2.2	COc1ccc(S(=O)(=O)N[C@H]2CC[C@@H](CC(=O)NCCc3ccccc3)O[C@H]2CO)cc1
-0.6	CC1(C(=O)NS(=O)(=O)Cc2ccccc2C(F)(F)F)CCN1C(=O)c1cccc(F)c1 (centres undefined)
-2.0	CC(C)CC#Cc1cnc2c(c1)C(=O)N([C@H](C)CO)C[C@@H](C)[C@@H](CN(C)C(=O)c1cccc(F)c1)O2

(list continues)
AF4-AF9 inh	SMILES
-1.3	O=C(Nc1ccc(F)cc1)N[C@@H]1CC[C@H](CC(=O)N2CCOCC2)O[C@@H]1CO
0.3	O=C(c1ccccn1)N1C[C@H]2[C@@H](c3ccccc31)[C@@H](CO)N2C(=O)Nc1ccccc1
-2.6	C[C@H]1CCCCO[C@H](CN(C)C(=O)CCC(F)(F)F)[C@@H](C)CN([C@@H](C)CO)C(=O)c2cc(NS(=O)(=O)c3ccccc3)ccc2O1
-2.2	C[C@H]1CN([C@@H](C)CO)C(=O)c2cc(NC(=O)CCC(F)(F)F)ccc2O[C@H]1CN(C)C
3.6	COc1ccc(NC(=O)Nc2ccc3c(c2)C(=O)N([C@@H](C)CO)C[C@@H](C)[C@@H](CN(C)Cc2ccc(-c4ccccc4)cc2)O3)cc1
0.1	CC(C)NC(=O)Nc1cccc2c1O[C@@H](CN(C)Cc1ccc(Cl)c(Cl)c1)[C@@H](C)CN([C@@H](C)CO)C2=O
-0.9	CN1c2ccc(Br)cc2[C@@H]2[C@@H](CCN2C(=O)Nc2ccc(F)cc2)[C@@H]1CO
1.7	CCc1csc(N2[C@@H](C#N)[C@H](c3ccc(-c4ccc(F)cc4)cc3)[C@@H]2CO)n1
-1.0	C[C@H]1CCCCO[C@@H](CN(C)C(=O)Nc2ccc(C(F)(F)F)cc2)[C@@H](C)CN([C@@H](C)CO)C(=O)c2cc(NC(=O)Nc3cccc4ccccc34)ccc2O1
-1.6	C[C@H]1CN([C@@H](C)CO)C(=O)c2cc(-c3ccccc3F)cnc2O[C@H]1CN(C)C(=O)C1CCCCC1

(continued)
AF4-AF9 inh	SMILES
-1.4&-3.8&-1.8	C[C@@H]1CN([C@H](C)CO)C(=O)c2cc(-c3ccc(C(=O)N(C)C)cc3)cnc2O[C@@H]1CN(C)C(=O)c1cccnc1
-0.8	Cc1ccc(Cc2c(-c3ccccc3)nc3c4ccccc4ccn23)cc1
-1.1	COc1ccc(NC(=O)Nc2ccc3c(c2)C(=O)N([C@@H](C)CO)C[C@@H](C)[C@H](CN(C)S(C)(=O)=O)OCCCC[C@@H](C)O3)cc1
-2.5	CCCCOC1NC(=O)NC(=O)C1(F)C(=O)OCC (centres undefined)
-6.7	COc1ccc(-c2csc(C(NC(C)=O)c3ccc(F)c(F)c3)n2)cn1 (centres undefined)
-12	COc1ccc(CNC(=O)C[C@@H]2C[C@@H]3c4cc(NC(=O)C5CCC5)ccc4O[C@@H]3[C@@H](CO)O2)cc1
1.0	C[C@H]1CN([C@@H](C)CO)C(=O)CCCn2nncc2CO[C@@H]1CN(C)C
-0.3	C[C@@H]1CCCCO[C@H](CN(C)C(=O)NC2CCCCC2)[C@@H](C)CN([C@@H](C)CO)C(=O)c2cc(NC(=O)NC3CCCCC3)ccc2O1
-0.2	C[C@H](CO)N1C[C@H](C)[C@@H](CN(C)C(=O)C2CCOCC2)Oc2ncc(-c3cccnc3)cc2C1=O
-2.3	CCC(=O)N1[C@H](CO)[C@H](c2ccc(C3=CCCCC3)cc2)[C@@H]1CN(C)C(C)=O

Additional records
AF4-AF9 inh	SMILES
-4.4	COc1ccc(S(=O)(=O)N2CC[C@@H]3[C@H](CO)Nc4ccc(-c5cccc(C#N)c5)cc4[C@@H]32)cc1
4.4	CC(C)CC#Cc1ccc2c(c1)O[C@@H](CN(C)C(=O)c1ccccn1)[C@H](C)CN([C@H](C)CO)S2(=O)=O
-2.5	CC(=O)N1CCCCN2[C@H](CO)[C@H](c3ccc(-c4ccccc4)cc3)[C@H]2C1
-4.2	CCS(=O)(=O)N1CC2(C1)[C@@H](c1ccccc1)[C@H](CO)N2C(=O)C1CC1
-6.1	COc1ccc(NC(=O)Nc2ccc3c(c2)C(=O)N([C@@H](C)CO)C[C@@H](C)[C@H](CN(C)C(=O)C2CCCCC2)OCCCC[C@H](C)O3)cc1
0.8	COc1ccc(OC)c(C2=CC(=O)C[C@H](c3ccc(F)cc3)C2)c1
-0.6	OC1CCC(Nc2ccn3nc(-c4cccc(Cl)c4)cc3n2)CC1 (centres undefined)
-3.3	COCC(=O)N(C[C@H]1[C@H](c2ccccc2)[C@H](CO)N1C(=O)NC(C)C)C(C)C
2.2	COc1ccccc1C#Cc1ccc2c(c1)O[C@@H](CN(C)Cc1ccncc1)[C@H](C)CN([C@H](C)CO)S2(=O)=O
-0.6	Cc1ccc(Cc2c(-c3cccc(Br)c3)nc3c(C)cc(Br)cn23)cc1

Next part:
AF4-AF9 inh	SMILES
-41	CSCCC(c1nc2ccccc2[nH]1)n1c(=O)c(-c2cc3ccccc3[nH]2)nc2ccccc21 (centres undefined)
-2.9	C[C@H](CO)N1C[C@H](C)[C@@H](CN(C)C)OCc2ccccc2-c2c(n(C)c3ccccc23)C1=O
-0.4	CCCCNC(=O)c1c(N)[nH]c(C(=O)c2ccccc2)c1-c1ccc(Cl)cc1
1.2	O=C(NC1CCC1)[C@@H]1[C@@H](CO)[C@@H]2Cn3c(cccc3=O)[C@H]1N2CC1CCCCC1
5.5	N#Cc1c(Nc2ccccc2)[n+]([O-])c2ccc(Cl)cc2[n+]1[O-]
1.5	C[C@H]1CCCCO[C@@H](CN(C)S(=O)(=O)c2cn(C)cn2)[C@@H](C)CN([C@@H](C)CO)C(=O)c2cc(NC(=O)Nc3ccccc3)ccc2O1
-2.8	CN(C)CC(=O)N[C@H]1C=C[C@@H](CC(=O)O)O[C@@H]1CO
-0.3	COCC(=O)N1CC2(C1)CN(C(=O)Nc1ccccc1F)[C@@H](CO)c1c2c2ccc(OC)cc2n1C
-1.7	CN1C(=O)c2cc(NC(=O)c3cnccn3)ccc2OC[C@@H]2O[C@@H](CC(=O)O)CC[C@H]21
-3.7	C[C@H]1CN([C@@H](C)CO)C(=O)Cc2cc(NS(=O)(=O)c3cn(C)cn3)ccc2O[C@H]1CN(C)Cc1ccc(C(F)(F)F)cc1

Carrying on:
AF4-AF9 inh	SMILES
-4.3	C[C@@H]1CN([C@H](C)CO)C(=O)c2cc(C#CC3(O)CCCC3)cnc2O[C@H]1CN(C)S(=O)(=O)c1ccc(F)cc1
-3.3	CC(C)c1ccc(CC(=O)N2CCC2(C)C(=O)Nc2cccc(C#N)c2)cc1 (centres undefined)
-6.4	CCOC(=O)[C@]12CCCC=C1N(Cc1ccc(Cl)cc1Cl)C(=O)[C@H](CC(=O)NCCC(C)C)C2
-17	C[C@H]1CN([C@@H](C)CO)C(=O)c2cc(C#Cc3cccc(F)c3)cnc2O[C@H]1CN(C)C(=O)C1CCCCC1
2.1&3.5	COc1cccc(-c2cnc3c(c2)C(=O)N([C@H](C)CO)C[C@H](C)[C@H](CN(C)Cc2ccc(F)cc2)O3)c1
1.8	CCCN1C[C@H](C)[C@@H](OC)CN(C)C(=O)c2ccc(NC(=O)c3cccc(OC)c3)cc2OC[C@H]1C
1.5	C[C@@H]1CN([C@H](C)CO)C(=O)c2cccc(NC(=O)C3CC3)c2O[C@H]1CN(C)Cc1ccc(C(=O)O)cc1
2.3	CC(=O)N1CCCCN2[C@H](C1)[C@H](c1ccc(-c3cccc(C(=O)N(C)C)c3)cc1)[C@@H]2CO

Molecules shown so far containing a CF3 group, in the order listed:
AF4-AF9 inh	SMILES
-0.6	O=C(C1CCOCC1)N1CC2(C1)[C@H](c1ccccc1)[C@@H](CO)N2CCC(F)(F)F
2.0	O=C(NCc1ccccc1)C1c2ccccc2OCC(=O)N1CC(F)(F)F (centres undefined)
-0.6	CC1(C(=O)NS(=O)(=O)Cc2ccccc2C(F)(F)F)CCN1C(=O)c1cccc(F)c1 (centres undefined)
-2.6	C[C@H]1CCCCO[C@H](CN(C)C(=O)CCC(F)(F)F)[C@@H](C)CN([C@@H](C)CO)C(=O)c2cc(NS(=O)(=O)c3ccccc3)ccc2O1
-2.2	C[C@H]1CN([C@@H](C)CO)C(=O)c2cc(NC(=O)CCC(F)(F)F)ccc2O[C@H]1CN(C)C
-1.0	C[C@H]1CCCCO[C@@H](CN(C)C(=O)Nc2ccc(C(F)(F)F)cc2)[C@@H](C)CN([C@@H](C)CO)C(=O)c2cc(NC(=O)Nc3cccc4ccccc34)ccc2O1
-3.7	C[C@H]1CN([C@@H](C)CO)C(=O)Cc2cc(NS(=O)(=O)c3cn(C)cn3)ccc2O[C@H]1CN(C)Cc1ccc(C(F)(F)F)cc1
